Screening data as filed in PubChem BioAssay.
eIF4H inh: inhibitors of RNA binding by human eIF4H; Q15056; eIF4H fluorescence polarization binding assay; 0.94% of 290,000 active; inhibition, % at 35 µM;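 active = 50% or more with normal probe brightness, or confirmed in later tests; inconclusive = above 50% with abnormal brightness, or retests that disagree; inactive = below 50% or failed in later tests; about a fifth of its hits are not listed in these tables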;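 note: calls also rest on retests at 20 µM and on dose response follow-up; 0% = protein and probe with vehicle and 100% = probe without protein; strong numbers were not always called active; many hits fall short of the cut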
CSC inhib: blocks cancer stem cells | cancer stem cell-like cells viability, luminescence | inhibition, % at 7.5 µM | 1.1% of 300,000 active;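 active = mean at 75% or more and at least half the replicates too; inconclusive = mean and replicates disagree; tested in HMLE shEcad cells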;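 note: 0% = median of negative and 100% = median of positive control wells; the first replicate is given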
PABP FP inh: PABP-poly(A) binding inhibition; P11940; PABP-poly(A) RNA binding, fluorescence polarization; inhibition, % at 35 µM; 1% of 290,000 active; AID 2014;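 active = 50% or more with normal probe brightness, or confirmed in later tests; inconclusive = above 50% with abnormal brightness, or retests that disagree; inactive = below 50% or failed in later tests; about a fifth of its hits are not listed in these tables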;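 note: calls also rest on retests at 20 µM and on dose response follow-up; controls were probe without protein and protein plus probe with vehicle; some compounds called inactive have numbers as strong as hits; many hits fall short of the cut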
Target sequence (P11940 whole entry, looked up): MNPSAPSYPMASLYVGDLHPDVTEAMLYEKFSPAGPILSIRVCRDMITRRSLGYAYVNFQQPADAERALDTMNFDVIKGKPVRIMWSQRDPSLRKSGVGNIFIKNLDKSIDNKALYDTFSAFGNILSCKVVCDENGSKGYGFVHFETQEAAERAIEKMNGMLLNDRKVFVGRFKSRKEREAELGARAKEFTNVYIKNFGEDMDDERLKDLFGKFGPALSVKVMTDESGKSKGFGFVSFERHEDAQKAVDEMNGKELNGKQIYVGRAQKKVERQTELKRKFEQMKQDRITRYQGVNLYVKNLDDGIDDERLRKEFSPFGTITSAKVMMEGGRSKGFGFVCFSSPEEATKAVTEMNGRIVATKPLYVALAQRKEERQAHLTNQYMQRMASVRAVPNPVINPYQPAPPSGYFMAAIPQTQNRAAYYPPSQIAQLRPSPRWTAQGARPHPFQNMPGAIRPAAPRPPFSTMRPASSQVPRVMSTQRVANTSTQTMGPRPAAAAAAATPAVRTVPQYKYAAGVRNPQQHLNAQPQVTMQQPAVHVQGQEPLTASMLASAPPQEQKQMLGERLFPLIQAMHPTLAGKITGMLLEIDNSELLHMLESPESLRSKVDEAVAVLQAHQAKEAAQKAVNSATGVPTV
MT1-MMP act inh: inhibitors of human MT1-MMP activation. P50281. HT1080 RFP-PRO-GFP cells, GFP/RFP ratio fluorescence, overnight; percent of plate control window, DMSO zero. GFP/RFP ratio change, % at 20 µM. 0.061% of 360,000 active. AID 651647;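 active = GFP/RFP ratio change of at least 30% with cell ATP level not reduced by more than half and red fluorescence within 50% of control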; note: strong numbers were not always called active
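Assay system: RFP-PRO-GFP reporter HT1080 cells; read-out basis: GFP/RFP fluorescence ratio; benchmarks: DMSO wells and RFP-L50D-GFP cells; doses: 20 µM single dose, 1% DMSO; schedule: overnight cell settling, then overnight compound exposure, 37 °C, 5% CO2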
Yeast UUG start: alters start codon recognition fidelity in yeast; 0.13% of 350,000 active; S. cerevisiae UUG-firefly luciferase reporter, luminescence/redox ratio; activity score, % at 18.7 µM; AID 602363;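 active = replicate mean at a twofold rise or more, about +100% in these data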;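 note: firefly luciferase made from a UUG start codon reports start codon fidelity; reporter light over untreated wells divided by growth signal over untreated wells; some hits fall short of that in this replicate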
HIV Env fusion: blocks HIV Env-driven cell-cell fusion; 1.1% of 360,000 active; HeLa-JRFL Env/CEM21 cell fusion, luciferase; inhibition, % at 12.3 µM;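 active = mean replicate inhibition score of at least 50 and every replicate individually at or above 50; inconclusive = only one of the two criteria met; inactive = mean below 50 and not all replicates reaching 50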;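 note: 0% = plate neutral controls and 100% = maraviroc near 300 nM; one replicate is shown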
Rce1 inhib: blocks yeast Ras-converting enzyme. Q03530. yeast membranes, quenched prenylated peptide cleavage fluorescence. calls only. 0.27% of 290,000 active;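 active = fall in fluorescence gain of 50% or more versus controls, with final raw signal at or below 3038400; inconclusive = same 50% fall but final raw signal above 3038400; inactive = fall in fluorescence gain under 50%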;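 note: plate controls were neutral control wells for no effect and wells lacking membranes for full effect; tested at 10 µM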
MT1-MMP act inh RFP: also measured in MT1-MMP act inh; calls as there; RFP signal change, %; measured here: RFP expression control read;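 0 = vehicle wells; hits needed this value within 50% of zero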
An asterisk follows results filed as active; i = inactive; ? = inconclusive; · = no result given.

structure	HIV Env fusion	Yeast UUG start	MT1-MMP act inh RFP	PABP FP inh	Rce1 inhib	MT1-MMP act inh	CSC inhib	eIF4H inh
COCCN(C(=S)Nc1ccccc1C)C(C)c1ccco1 (configuration not stated)	-11	-9	3	-6	i	4	-5	-1
O=C(Nc1ccc(Br)cn1)c1coc(=O)c(Br)c1	-6	-1	3	13	i	-2	-1	26
CCOC(=O)c1c(C)[nH]c(C(=O)OCC(=O)c2c(N)n(C)c(=O)n(C)c2=O)c1C	·	·	·	3	i	·	-2	-15
O=C(NCC1CCCCC1)c1[nH]c(C(F)(F)F)nc1-c1ccccc1	24	-3	-12	·	·	0	·	·
Cn1c(=O)c2c(nc(N3CCOCC3)n2C/C=C/c2ccccc2)n(C)c1=O	-4	13	-4	-1	i	0	-4	-9
CC(c1ccccc1)C1NC(C(=O)O)CS1 (configuration not stated)	·	-23	1	-3	i	2	·	0
COC(=O)c1ccccc1NC(=O)CSc1[nH]c(=O)cc(C)c1C#N	6	·	0	8	i	2	1	-7
CCOc1ccc(CCNC(=O)COC(=O)c2cccnc2SC)cc1OCC	2	·	2	·	i	8	0	·
Brc1ccc(OCCCCCN2CCOCC2)cc1	7	·	0	3	i	1	24	-7
COc1ccc(COn2nnc3ccc(S(=O)(=O)N4CCOCC4)cc32)cc1F	1	-13	-4	·	i	-2	-8	·
CC1CCN(Cc2nnnn2CCCC(=O)NCCN2CCOCC2)CC1	-5	-9	2	-11	i	1	-9	-7
O=C(COC(=O)c1ccc(Cl)nc1)Nc1cc(S(=O)(=O)N2CCOCC2)ccc1Cl	0	-9	4	·	·	-3	-9	·
Brc1ccccc1-n1nnc(-c2cccnc2)n1	-52	0	1	-3	i	2	-1	-9
COc1cccc(CN(C)S(=O)(=O)c2ccc3c(c2)OCCO3)c1	30	-5	-1	·	·	3	·	·
CC(C)[C@@H](C(=O)NCC1CCCO1)N1C(=O)N2CCc3c([nH]c4ccccc34)[C@@]2(C)C1=O (some centres not stated)	·	-14	0	-6	i	0	8	-2
CCN(CC(=O)N1CCN(Cc2ccccc2)CC1)S(=O)(=O)c1ccc(C)cc1	4	5	-4	-5	i	-5	-4	-2
N/C(Cc1ccc(Cl)cc1Cl)=N\OC(=O)Cc1cccs1	-4	·	-1	6	i	-3	7	-8
O=C(NCCCO)C(=O)Nc1ccc2c(c1)N(S(=O)(=O)c1cccs1)CCC2	1	0	-3	·	i	2	·	·
Cc1ccc(C)c(NC(=O)c2ccc[n+](Cc3ccc([N+](=O)[O-])cc3)c2)c1	·	-15	2	-4	i	1	-19	34
CC(C)c1nc(Cl)c(C#N)c2c1CSC(C)(C)C2	-32	·	-2	-6	i	-5	66	-10
CC(NCc1ccc2c(c1)OCO2)C(=O)N1CCc2ccccc21 (configuration not stated)	10	·	6	-16	i	1	-21	-7
O=C(Nc1ccc(N2CCCC2)c(S(=O)(=O)Nc2cccc(C(F)(F)F)c2)c1)c1cccs1	·	·	-16	-4	i	-3	15	-3
CCCCCCCCCC[n+]1cccc(C(=O)N(CC)CC)c1	10	·	-2	-12	i	-3	58	5
CCOc1cc(C(=O)N2CCCC2)cc(OCC)c1OCC	·	-10	3	4	i	1	15	-6
CCc1cc2c3c([nH]c2cc1S(=O)(=O)N1CCC2(CC1)OCCO2)CCCC3=O	2	18	-5	3	i	5	9	-3
O=C(CSCc1ccccc1Br)NC1CC1	4	-13	7	-7	i	5	-13	6
Cc1ccc(N2C(=O)[C@@H]3C(C(=O)CN4C(=O)c5ccccc5C4=O)=NN[C@@H]3C2=O)c(C)c1	0	-2	-2	4	i	-3	-7	-1
O=C1CC(N2CCCCCC2)C(=O)N1c1ccc2c(c1)OCO2 (configuration not stated)	·	-22	-3	-4	i	4	-1	5
CC(OC(=O)CNC(=O)COc1ccccc1)C(=O)N(C)Cc1ccccc1 (configuration not stated)	2	·	1	·	i	0	-19	·
Cn1c(Cc2nc3ccccc3n2C)nc2ccccc21	-7	-33	2	·	i	4	-15	·
COc1ccc(C(=O)Nc2ccc(Cl)cc2C(=O)N2CCOCC2)cc1	-12	5	17	16	i	7	0	-5
NS(=O)(=O)c1ccc(NC(=O)CSc2nc3ccccc3n2-c2ccccc2)cc1	·	-9	-6	21	i	-3	8	-5
N#CCc1c(C#N)c(N)nc(N2CCOCC2)c1C#N	-8	-19	3	·	i	-1	-5	·
COC(=O)NNC(=S)NCc1ccc(C)cc1	2	-24	2	-2	i	1	-4	-3
CC(C)N(C(=O)Cn1c(SCC(=O)NC2CC2)nc2ccccc21)C(C)C	16	-8	1	2	i	-2	·	0
COc1ccc(CN2CCOCCOCCOCC2)cc1	10	·	4	-5	i	1	-3	-16
Cc1ccc(CNC(=O)C2CCC(=O)N(CCc3cccc(F)c3)C2)s1 (configuration not stated)	-13	-13	0	3	i	0	·	2
COc1ccc(C(=O)O/N=C(/c2ccccc2)c2ccncc2)cc1	-24	·	4	3	i	2	-14	-2
CCc1ccc2oc(-c3cc(N)ccc3Cl)nc2c1	-238	-65	2	11	i	13	34	-4
CCOCC(=O)Nc1nnc(SCCOC)s1	-13	-10	3	-5	i	1	-2	-1
O=C(NCc1ccccc1C(F)(F)F)c1cccc2c1C(=O)c1ccc(N3CCC(N4CCCCC4)CC3)cc1S2(=O)=O	-3	-7	5	·	·	-39	·	·
CC1CCCCC1NC(=O)CC1Oc2ccccc2NC1=O (configuration not stated)	8	-6	2	1	i	-2	-11	3
CCC1C(=O)C(C)(C)C(=O)OC1c1ccc([N+](=O)[O-])cc1 (configuration not stated)	0	-2	-2	85*	i	-2	-5	110*
Cc1nnsc1C(=O)NNC(=O)c1ccc(C(F)(F)F)cc1	-9	-5	-2	6	i	6	13	1
CSc1cccc(CN2CCCC(CNC(=O)c3ccco3)C2)c1 (configuration not stated)	?	-9	4	10	i	2	-1	6
CCOC(=O)CNC(=O)N1CCCC(C(=O)c2cc(C)c(OC)c(C)c2)C1 (configuration not stated)	-246	-4	-3	0	i	-2	-15	-7
CC(=O)Nc1cccc(/C(C)=N/N2C(C)CCCC2C)c1 (configuration not stated)	-7	-9	1	3	i	5	·	-11
CCc1nc2oc3ccccc3c(=O)c2c(=O)n1Cc1ccccc1	-62	·	-3	3	i	-6	-30	-9
O=C1CCN(Cc2ccccc2)CCN1[C@H](CO)c1ccccc1	6	-8	3	-3	i	5	-13	6
CCc1noc(C)c1C(=O)Nc1ccccc1C(C)(C)C	-10	3	3	-9	i	-1	-8	4

(more compounds)
structure	HIV Env fusion	Yeast UUG start	MT1-MMP act inh RFP	PABP FP inh	Rce1 inhib	MT1-MMP act inh	CSC inhib	eIF4H inh
O=C1C(=O)N(CCN2CCOCC2)C(c2ccc(Cl)cc2)/C1=C(/O)c1ccc(S(=O)(=O)N2CCOCC2)cc1 (configuration not stated)	·	-14	6	7	i	2	11	-3
CC(C)(C)NC(=O)CN(C(=O)CCN1CCCc2ccccc21)C(C)(C)C	·	6	6	-7	i	-24	·	-16
O=C(NCc1ccc(F)cc1)c1cc(C2CCCN(C(=O)c3ccc4c(c3)CCO4)C2)on1 (configuration not stated)	4	19	-6	·	·	-3	·	·
CCc1ccc2nc(SCC(=O)N3CCCCC3)c(C#N)cc2c1	·	-20	-9	·	i	-6	-23	·
COc1ccc(C(O)c2nc(-c3ccc(N(C)C)cc3)cs2)cc1 (configuration not stated)	12	-6	-22	·	·	3	·	·
COCCNC(=O)c1noc2c1CCc1cc(OC)ccc1-2	-152	-4	6	11	i	6	·	2
COc1ccccc1CNC(=O)c1ccc2c(c1)OCO2	-1	·	-2	-4	i	-1	-8	-6
COc1ccc(C(=O)Nc2cccc(NC(=O)c3cccs3)c2)cc1OC	1	-16	-4	8	i	2	-2	8
COc1cc2c(-c3ccc4cc[nH]c4c3)c(-c3ccsc3)oc(=O)c2cc1OC	-15	-17	-7	·	·	-3	20	·
Cc1cccc(CSC2=NCCN2C(=O)c2ccc(Br)o2)c1	?	-11	1	8	i	2	-8	-8
COc1cc(C=O)ccc1OS(=O)(=O)c1ccc(NC(C)=O)cc1	9	-13	2	7	i	-3	-5	2
CCc1nc2c(OCCC3CCCCC3)cccn2c1N(C)C(=O)c1ccco1	39	-21	0	·	·	-7	·	·
COc1ccc(OC)c(/C=N/NC(=O)CCCC(=O)Nc2cccc(Br)c2)c1	·	-4	-3	-4	i	7	-2	0
N#Cc1sc2nccc(Nc3ccccc3)c2c1N	62*	-11	-13	·	i	-4	-9	·
O=C(CCN1C(=O)C2C3C=CC(C3)C2C1=O)N1CCN(c2ccc([N+](=O)[O-])cc2)CC1 (configuration not stated)	14	-5	-5	-12	·	2	-7	-11
CN(C(=O)c1ccccc1)C1(C)CCS(=O)(=O)C1 (configuration not stated)	·	-5	8	1	i	7	3	-3
Cc1ccc(CNS(=O)(=O)c2cc3c(cc2C)NC(=O)CO3)cc1	-8	-4	0	2	i	3	14	-7
CCc1ccc(S(=O)(=O)Nc2ccc(C)c(NS(C)(=O)=O)c2)cc1	-5	-9	4	0	i	4	-8	4
CCOC(=O)CSc1nnc(-c2cccs2)n1-c1ccccc1	-13	-3	4	0	i	4	-5	-8
CCCC(=O)N1CCN(c2ccc(NC(=S)NC(=O)CC)cc2)CC1	-40	-7	-3	-1	i	-3	-16	-5
CSc1nc2ccsc2c(=O)n1-c1cccnc1	1	-17	3	-9	i	0	-22	-5
CCOC(=O)/C(C#N)=C/c1cccc(F)c1	-6	·	1	-7	i	-3	-10	-1
Nc1nccnc1C(=O)OCC(=O)C12CC3CC(CC(C3)C1)C2	-20	-18	-1	·	i	-2	-12	·
O=[N+]([O-])c1ccccc1/C=N/n1c(C(F)(F)F)n[nH]c1=S	-5	·	3	-3	i	5	1	-15
Cc1noc(C)c1CSCC(=O)Nc1nc(-c2ccc(F)c(F)c2)cs1	61*	-15	-23	·	i	-8	11	·
FC(F)(F)c1cc(-c2ccccn2)nc2cc(-c3ccccc3)nn12	0	-9	-2	-2	i	0	-8	-5
O=C(Nc1ccc(-c2nc3ccccc3[nH]2)cc1)C1CCCN(Cc2ccn[nH]2)C1 (configuration not stated)	-19	-18	1	·	·	3	·	·
c1ccc(-n2cnc3cc(NCc4ccco4)ccc32)cc1	-72	·	2	-8	i	5	20	-10
N#Cc1nc(-c2ccccc2F)oc1N1CCN(C(=O)c2ccco2)CC1	·	2	1	6	i	-1	-2	1
Cc1cccc(C(=O)N/N=C/c2ccc[nH]2)c1	12	·	10	-2	i	6	-12	2
C=CCn1c(SCC(=O)C(C)(C)C)nnc1-c1ccccn1	-21	-7	8	-6	i	5	-4	-3
CN(C)C(CNC(C(=O)Nc1ccc(F)cc1)c1ccccc1)c1ccccc1 (configuration not stated)	4	-10	2	-4	i	0	12	0
CCc1nc(SCC(=O)Nc2ccccc2OC)n[nH]1	1	-15	1	-4	i	1	-3	1
